GALR2 ag – agonists of human galanin receptor 2 (GALR2). activation, %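 (tested at 5 µM)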. GALR2-expressing cells, agonist activation read-out. O43603. 140,000 tested, 0.48% active;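 active means above mean plus 3 SD of all compounds, about 5% in these data, not always enough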;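 further: 0% = vehicle buffer wells and 100% = reference agonist at full effect; tested in CHO reporter cells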
Target sequence (O43603 whole entry, looked up): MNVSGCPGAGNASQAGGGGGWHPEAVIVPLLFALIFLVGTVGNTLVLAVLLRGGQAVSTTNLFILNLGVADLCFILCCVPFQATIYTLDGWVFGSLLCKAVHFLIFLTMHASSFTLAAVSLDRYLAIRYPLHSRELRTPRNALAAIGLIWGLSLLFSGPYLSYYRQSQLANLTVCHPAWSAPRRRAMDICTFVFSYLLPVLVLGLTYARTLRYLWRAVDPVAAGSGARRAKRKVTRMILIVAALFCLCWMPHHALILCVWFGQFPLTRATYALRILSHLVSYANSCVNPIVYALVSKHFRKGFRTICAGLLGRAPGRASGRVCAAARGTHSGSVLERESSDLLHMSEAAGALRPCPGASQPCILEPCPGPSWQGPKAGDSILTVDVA
HSV augment – increases HSV replication in cells; HSV replication augmentation in cells, fold increase; maximum fold increase; 220,000 tested, 0.005% active; AID 1956;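 active means peak rise of 1.5-fold or more in the series; tested in PC3 cells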;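 further: first round at 10 µM; read as green reporter fluorescence; hits show the peak of a series up to 25 µM; 1 = signal of infected wells without compound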
RGS16-Gao – regulators of human RGS16-Galphao interaction. binding response (% of control), % at 10 µM. O15492+P09471. 220,000 tested, 0.38% active. bead-based flow cytometry RGS16-Galphao binding, fluorescence; actives lie on both sides;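 active means below 25% or above 175%, edge rows of some plates excepted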;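 further: Galphao activated by GDP with aluminum fluoride before binding; 100% = wells without compound and 0% = beads without RGS; some results beyond the cut were filed as inactive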
Target sequence (O15492 whole entry, looked up): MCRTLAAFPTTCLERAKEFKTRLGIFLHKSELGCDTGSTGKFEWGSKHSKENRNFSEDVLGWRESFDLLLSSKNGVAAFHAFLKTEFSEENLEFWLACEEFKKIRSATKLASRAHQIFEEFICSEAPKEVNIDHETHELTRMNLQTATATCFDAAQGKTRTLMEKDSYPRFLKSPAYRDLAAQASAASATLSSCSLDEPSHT
Target sequence (P09471 whole entry, looked up): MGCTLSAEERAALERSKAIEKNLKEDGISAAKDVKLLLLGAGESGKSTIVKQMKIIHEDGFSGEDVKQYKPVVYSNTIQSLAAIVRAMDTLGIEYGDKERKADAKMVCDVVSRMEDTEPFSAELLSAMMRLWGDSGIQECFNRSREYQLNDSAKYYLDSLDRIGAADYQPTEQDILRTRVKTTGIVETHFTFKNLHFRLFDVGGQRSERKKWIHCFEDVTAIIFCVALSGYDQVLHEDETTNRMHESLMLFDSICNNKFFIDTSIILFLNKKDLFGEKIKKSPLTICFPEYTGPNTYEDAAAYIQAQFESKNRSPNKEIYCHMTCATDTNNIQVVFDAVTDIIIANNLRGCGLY
Insulin prom inh – TRM-6 insulin promoter activity inhibition. TRM-6 cells (human fetal islet line), insulin promoter-eGFP reporter, imaging; reporter expression induced with tamoxifen. inhibition, % at 2 µM. 130,000 tested, 0.9% active. AID 1273;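 active means inhibition above the mean plus 3 SD, with well images judged a real hit on visual review, cut at about 60% in these data, passing the limit was not always enough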
PKD1 kinase inh – PKD1 (human) kinase inhibition; AID 797; Q15139; 200,000 tested, 0.056% active; inhibition, %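 (about 10 µM by stock and volumes)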; PKD1 kinase fluorescence polarization assay;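 active means inhibition of 50% or more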;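 further: controls were vehicle for no effect and a reference inhibitor for full effect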
Insulin prom inh cell count – recorded beside Insulin prom inh, whose call it bears; normalized cell count, %; measured here: cell count, toxicity; reference of the scale not given here;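 cells exposed to compound for 48 h; stained nuclei by imaging scaled within each plate; lower means fewer cells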
HSV augment primary fold – further read-out of HSV augment, marked with its call; fold increase; compound at 10 µM; measured here: primary screen fold increase 10 uM; tested in PC3 cells;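 GFP signal in the first replicate; 1 = infected wells without compound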
* marks the source's active call; other numbers are inactive results; i = inactive; · = no result given.

#	SMILES	GALR2 ag	HSV augment	HSV augment primary fold	RGS16-Gao	Insulin prom inh	Insulin prom inh cell count	PKD1 kinase inh
1	CCOC(=O)c1ccc(NC(=S)N(CCCN2CCCC(C)C2)Cc2ccco2)cc1 (stereo not given)	0.6	i	0.81	97	-53	110	-11
2	CCCOc1ccc(-c2c(C(=O)N/N=C/c3ccc(C)cc3)nnn2-c2nonc2N)cc1	·	i	1	102	·	·	·
3	COc1ccc(C)cc1NS(=O)(=O)c1cn(C)nc1C	·	i	1.1	98	·	·	-3
4	Cc1cccc(S(=O)(=O)NCCC(=O)OC(C)C(=O)NC(=O)NC2CCCCC2)c1 (stereo not given)	-0.7	i	0.93	101	·	·	-7
5	CC1=CC(C)(C)n2c(O)c(C3=NC(=S)NC3=O)c3cc(OC(=O)c4cccc5ccccc45)cc1c32	-2.1	·	·	101	-8	76	1
6	CC(C)CCn1c(N2CCN(Cc3ccccc3)CC2)nc2c1c(=O)[nH]c(=O)n2C	-0.1	·	·	·	·	·	-10
7	Cc1ccccc1NC(=S)N(CCc1c(C)[nH]c2ccc(F)cc12)Cc1cccnc1	·	i	1	94	0	202	-1
8	Cc1ccccc1NC(=O)CSc1ccncc1	·	i	0.92	99	·	·	·

Down the list, from the results shown.
RGS16-Gao, nos. 2–5, in order: 102, 98, 101, 101

Next structures:
#	SMILES	GALR2 ag	HSV augment	HSV augment primary fold	RGS16-Gao	Insulin prom inh	Insulin prom inh cell count	PKD1 kinase inh
9	COc1ccc2nc(SCC(=O)N3CCNC3=O)[nH]c2c1	-1.3	i	1	104	·	·	-8
10	CCCCn1nc(C(=O)Oc2ccc3c(C)cc(=O)oc3c2)c2ccccc2c1=O	-0.9	i	1.1	98	·	·	-15
11	c1ccc(CCC2CCCCN2Cc2nc(C3CC3)no2)cc1 (stereo not given)	·	i	0.99	92	·	·	5
12	O=C(O)CC1=C(c2ccc(F)cc2)CCC1=O	-0.9	·	·	106	-8	90	-3
13	Nc1cc(-c2cccc(F)c2)nn1S(=O)(=O)c1cccc2nsnc12	-0.6	i	0.98	103	·	·	-4
14	CC(C(=O)Nc1cc(C(F)(F)F)ccc1N1CCOCC1)N1C(=O)C2CC=CCC2C1=O (stereo not given)	-0.8	i	0.97	102	-12	80	-6
15	Cc1cc(NC(=O)c2ccc([N+](=O)[O-])cc2Cl)ccc1NC(=O)c1ccco1	-0.6	i	0.74	101	-27	123	-5
16	CC1=C(C(=O)OCC(C)C)C2(O)C(=O)c3ccccc3C2(O)N1 (stereo not given)	-1.0	i	0.92	100	·	·	-5
17	Cc1cc(C)c(C(=O)Cn2nc(C(=O)O)c3ccccc3c2=O)cc1C	·	i	0.96	95	·	·	·
18	COc1ccc(OCC(=O)Nc2ccc(S(=O)(=O)N3CCCCCC3)cc2)cc1	-1.1	i	0.91	104	-35	68	-10
19	CCCOc1ccc(C2NC(=S)NC(c3ccccc3)=C2C(=O)Nc2ccc(C)cc2)cc1OC (stereo not given)	-0.1	i	1	85	·	·	0
20	Cc1nnc(SCCn2c(N3CCC(C)CC3)nc3c2c(=O)[nH]c(=O)n3C)s1	-1.5	i	1	102	-9	72	-7
21	Cc1ccc(N2C(=O)CC(Nc3cccc4ccccc34)C2=O)cc1 (stereo not given)	·	i	0.96	98	·	·	·
22	CCOC(=O)Nc1ccc2c(c1)Sc1ccccc1N2C(=O)CCN1CCOCC1	-0.4	i	0.77	103	·	·	3
23	Cc1ccc(C)n1CCN1CCN(CC(=O)Nc2cc(C(F)(F)F)ccc2Cl)CC1	-0.7	i	1.1	90	-58	89	-13
24	Cc1cc(NC(=O)CSc2nnc3c(C)cc4ccccc4n23)no1	-0.2	i	0.91	86	-30	68	-5
25	COc1ccc(Nc2ncnc3ccc([N+](=O)[O-])cc23)c(OC)c1	·	i	0.69	98	-13	118	-9
26	CCN(CC)S(=O)(=O)c1ccc(C(=O)Nc2ccc(OCC(=O)N3CCOCC3)cc2)cc1	-0.5	i	0.98	99	25	80	-4
27	CCOC(=O)CSc1nc2cc(C(=O)NCc3ccco3)ccc2c(=O)n1C1CCCCC1	-0.1	i	0.89	103	17	62	-12
28	Cc1cc(C)cc(OCC(=O)NNC(=O)c2cc(C)[nH]n2)c1	-3.0	i	0.89	96	4	121	5
29	COc1ccc(/C=N/NC(=O)c2ccoc2C)cc1COc1ccc(Cl)cc1	-1.7	i	0.85	95	i	75	5
30	O=C(COC(=O)/C=C/c1cccs1)NC(c1ccccc1)c1ccccc1	0.3	i	1.3	101	·	·	-5
31	COC(=O)c1ccc(OCC(O)CN2C(=O)c3ccccc3S2(=O)=O)cc1 (stereo not given)	·	i	0.97	97	39	68	-3
32	Nn1c(SCc2cccc(F)c2)nnc1-c1cccnc1	·	i	0.89	115	·	·	·

Taken from above:
Value for #6 under PKD1 kinase inh: -10
Value for #10 under RGS16-Gao: 98
Value for #15 under Insulin prom inh: -27
Value for #22 under RGS16-Gao: 103
Value for #3 under PKD1 kinase inh: -3

The list continues.
#	SMILES	GALR2 ag	HSV augment	HSV augment primary fold	RGS16-Gao	Insulin prom inh	Insulin prom inh cell count	PKD1 kinase inh
33	Clc1ccc(OCc2nc(-c3ccncc3)no2)c(Br)c1	0.4	·	·	103	30	88	2
34	CN(C)/C=C/C(=O)c1cnc(-c2cccc(Cl)c2)s1	·	i	0.93	101	-15	94	-6
35	Nn1c(Nc2ccccc2)nc2ccccc2c1=O	-1.2	i	1	113	·	·	-2
36	O=[N+]([O-])c1cccc(/C=N\N2CCN(Cc3ccccc3Cl)CC2)c1	-2.0	·	·	104	-80	144	-8
37	COc1cc(NC(=O)c2ccno2)cc(C(=O)Nc2cccc(C(F)(F)F)c2)c1	·	i	0.75	118	·	·	·
38	COc1ccnc(Oc2ccccc2)c1C(N)=O	·	i	0.92	103	·	·	2
39	CCCC(=O)N1CC(=O)Nc2ccc(F)cc2C1c1ccccc1 (stereo not given)	-2.8	i	1.1	59	·	·	-6
40	COCC(=O)NCc1ccc2c(c1)OCO2	-1.1	i	1	104	56	137	-7

(list continues)
Results follow in this order: GALR2 ag, HSV augment, HSV augment primary fold, RGS16-Gao, Insulin prom inh, Insulin prom inh cell count, PKD1 kinase inh
[41] CC1=NOC(=O)/C1=C/c1ccc(-c2ccc(Cl)cc2)o1
 : 0.6, i, 0.87, 54, 10, 121, 0
[42] CCCCCCCCn1cc(C(C)=O)c(=O)[nH]c1=O
 : -0.4, i, 0.96, 101, ·, ·, -1
[43] COc1cc(CN2CC(=O)N(c3ccc(C)c(C)c3)C2=S)cc(OC)c1OC
 : -1.0, i, 0.92, 107, 14, 86, -3
[44] CNc1ccc(NC(C)=O)cc1[N+](=O)[O-]
 : -0.5, i, 0.99, 67, ·, ·, 1
[45] CN(CCc1ccccn1)C(=O)CC1C(=O)NCCN1Cc1ccccc1C(F)(F)F (stereo not given)
 : ·, i, 0.89, 95, ·, ·, 6
[46] CC(=O)NC(CC(=O)c1ccc([N+](=O)[O-])cc1)C(Cl)(Cl)Cl (stereo not given)
 : -1.2, i, 0.93, 103, -17, 88, 3
[47] COC(=O)c1cc(OC)c(OC)cc1NC(=O)c1c(-c2ccccc2Cl)noc1C
 : -0.3, i, 0.71, 97, -12, 93, 8
[48] COc1ccc(NC(=O)CSc2cc(C)ccc2C)cn1
 : ·, i, 0.97, 110, 67, 76, -9
[49] CCN(CC)S(=O)(=O)c1ccc2c(c1)nc(SCC(N)=O)n2-c1ccc(OC)cc1
 : -0.3, i, 0.89, 105, 0, 91, -10
[50] C=C(C)CSc1nnc(CCCCCNC(=O)OC(C)(C)C)o1
 : ·, i, 0.95, 100, ·, ·, ·
[51] CCC(=O)Nc1ccc(N2CCN(S(C)(=O)=O)CC2)cc1
 : 1.3, i, 0.97, 18, 26, 92, 4
[52] O=C(c1cc2ccccc2o1)N1CCN(c2ccccc2Cl)CC1
 : -0.6, i, 0.85, 106, ·, ·, -2
[53] O=C(COc1ccccc1)N(Cc1ccccc1)c1nc(-c2ccccc2)cs1
 : -1.1, i, 1.1, 99, 12, 159, -2
[54] CC(=O)NNC(=O)c1cc2c3ccccc3n(C)c2s1
 : ·, i, 1.1, 102, ·, ·, -7
[55] COc1cccc(NC(=S)NNC(=O)Cn2nc([N+](=O)[O-])cc2C)c1
 : ·, i, 0.92, 95, -41, 89, -10
[56] O=C(C1=C(O)C(=O)N(c2ncccn2)C1c1ccc(Cl)cc1)c1ccco1 (stereo not given)
 : -1.8, i, 1.1, 94, 42, 55, -1
[57] O=C(NCCOc1ccccc1)c1ccccc1NC(=O)C1CCCO1 (stereo not given)
 : ·, i, 1.1, 104, ·, ·, 2
[58] CCCNc1ncnc2sc(C)c(C)c12
 : -1.5, i, 0.98, 99, -12, 93, 0
[59] CCC/C(O)=C1\C(=O)CCCC1=NCCc1c(C)[nH]c2ccc(OC)cc12
 : ·, i, 0.88, 98, -53, 89, 0
[60] CCOC(=O)c1c(NC(=S)Nc2ccccc2)sc2c1CCN(C)C2
 : 1.3, i, 1.1, 130, -17, 85, 1
[61] O=C1C=C(Nc2ccc(Cl)cc2Cl)CC(c2ccco2)C1 (stereo not given)
 : ·, i, 0.77, 97, ·, ·, 12
[62] O=C(COc1ccc2ccccc2c1CN1CCOCC1)N1CCc2ccccc21
 : -2.1, i, 0.85, 103, ·, ·, 0
[63] CCOC(=O)c1c(C)[nH]c(C(=O)OCC(=O)N2CC(C)OC(C)C2)c1C (stereo not given)
 : -0.1, i, 0.88, 97, -9, 122, -8
[64] Cc1ccc(-c2nc3ccccc3o2)cc1NC(=S)NC(=O)/C=C/c1ccco1
 : 0.0, i, 0.91, 93, 0, 174, 1
[65] Cc1ccc(C)c(NC(=S)NCCc2c[nH]c3ccccc23)c1
 : ·, i, 0.98, 106, ·, ·, ·
[66] CCOC(=O)CSc1nnc(NC(=O)c2cccc(S(=O)(=O)N3CCCC3)c2)s1
 : -1.8, i, 0.69, 93, -28, 77, -6
[67] O=C(O)c1sccc1SCc1ccc(Cl)c(Cl)c1
 : -0.7, i, 0.95, 103, 41, 64, 4
[68] CCOc1ccc(CN2C(=O)CC(=O)N(S(=O)(=O)c3ccc(OCC)cc3)C2=O)cc1
 : ·, i, 1, 102, ·, ·, ·
[69] Cc1ccc2nc(N3CCN(S(=O)(=O)c4ccc(C)c(Cl)c4)CC3)c(C#N)cc2c1
 : -1.2, i, 0.97, 99, -53, 114, -10
[70] Cc1cc(C)nc(N2CCN(C(=O)CCC(=O)Nc3nnc(CC(C)C)s3)CC2)n1
 : ·, i, 0.98, 98, ·, ·, ·
[71] COc1ccc(Cl)c(Cn2c(NCCCN(C)C)nc3c2c(=O)n(C)c(=O)n3C)c1
 : 0.5, i, 1.1, 98, 4, 147, -4
[72] O=C(CCSc1ccccc1)Nc1ccccc1Br
 : ·, i, 1, 104, 29, 71, 3
[73] O=C(NNc1ccccn1)c1ccc(Cl)nc1
 : -0.9, i, 0.97, 96, 0, 116, 4
[74] Cc1ccc(OCC(=O)N(C)Cc2ccccc2)c([N+](=O)[O-])n1
 : 0.4, i, 0.97, 110, ·, ·, 1
[75] O=C(CNC(=O)c1ccccc1)OCc1cccc(Br)c1
 : ·, i, 1.1, 96, -21, 110, 7
[76] COc1cc([N+](=O)[O-])cc(/C=N/N(CCC#N)C(C)=O)c1O
 : ·, i, 1, 101, ·, ·, -6
[77] S=c1[nH]ncn1-c1ccccn1
 : -2.1, i, 0.88, 104, -7, 156, -13
[78] CCSC1=C(C#N)C2(CCCCC2)C(C#N)C(=O)N1 (stereo not given)
 : 0.3, i, 0.94, 90, ·, ·, 3
[79] CCOC(=O)CCSc1cc(C)c2ccccc2n1
 : ·, i, 0.97, 105, ·, ·, 2
[80] Cc1nc(C(=O)O)nn1-c1ccc([N+](=O)[O-])cc1
 : ·, i, 0.95, 97, -18, 83, 0
[81] O=S(=O)(N/N=C1/CC(c2ccccc2)Oc2ccccc21)c1ccc(Br)cc1 (stereo not given)
 : -1.0, i, 0.73, 102, -8, 95, 4

Entries of single compounds as entered above. Order of screens: GALR2 ag | HSV augment | HSV augment primary fold | RGS16-Gao | Insulin prom inh | Insulin prom inh cell count | PKD1 kinase inh
O=C(NNc1ccccn1)c1ccc(Cl)nc1 in the list: -0.9 | i | 0.97 | 96 | 0 | 116 | 4
CCSC1=C(C#N)C2(CCCCC2)C(C#N)C(=O)N1 (stereo not given) in the list: 0.3 | i | 0.94 | 90 | · | · | 3
Cc1ccc(OCC(=O)N(C)Cc2ccccc2)c([N+](=O)[O-])n1 in the list: 0.4 | i | 0.97 | 110 | · | · | 1
S=c1[nH]ncn1-c1ccccn1 in the list: -2.1 | i | 0.88 | 104 | -7 | 156 | -13
O=C(CCSc1ccccc1)Nc1ccccc1Br in the list: · | i | 1 | 104 | 29 | 71 | 3

Source: PubChem BioAssay (several laboratories)
